D2 ag: Beta-Arrestin HTS for Positive Allosteric Modulators of the Human D2 Dopamine Receptor: Agonists; D(2) dopamine receptor (Homo sapiens), P14416; DiscoveRx PathHunter D2 beta-arrestin, luminescence, 90 min; 100% = 57 uM dopamine signal; activation, % (concentration not given with the values); 360,000 tested, 0.084% active; in the data active = activation above about 40%; inconclusive = about 15% to 40%; inactive = below about 15%; note: compound concentration not given in the record; the text of the record calls up to 30% inactive
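Agonist mode: compounds alone added to overnight-plated D2 PathHunter cells for 90 min at 37 C, with 57 uM final dopamine (EC100) defining full response. Beta-arrestin recruitment detected by chemiluminescent reagent, read after 1 h at ambient temperature.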
CtBP-E1A inh: qHTS Assay for Inhibitors of the CtBP/E1A Interaction; AlphaScreen GST-E1A/His-CtBP binding, 1536-well; active compounds read low; control for the full effect not named in the record; CtBP / adenovirus E1A interaction (AlphaScreen); activity change, % (concentration not given with the values); 340,000 tested, 0.49% active; in the data active means activity change below about -65%; inconclusive means about -30% to -65%; inactive means above about -30%; note: % is set by controls: 0 for no effect and ±100 for the full control effect
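AlphaScreen with 125 nM GST-E1A and 125 nM His-CtBP (5X stocks) in Tris pH 8.0, 300 mM NaCl, BSA, Tween 20, TCEP. Compounds preincubated 2 h at 37 deg C, then glutathione donor/nickel acceptor beads added for 1 h at 37 deg C in dark.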
TRPML1 agonist: qHTS for Agonists of the Human Mucolipin Transient Receptor Potential 1 (TRPML1); activation, % (test concentration not listed); TRPML1-expressing cells, Ca2+ dye fluorescence, FDSS; host cell line not named in the record; reference of the full effect not given here; 410,000 tested, 0.12% active; Mucolipin-1 (Homo sapiens), Q9GZU1; in the data active = activation above about 50%; inconclusive = about 30% to 50%; inactive = below about 30%; note: 0% is about no effect; the text of the record puts the active cut at 80%
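TRPML1-DL cells, Tet-induced overnight (~16 h, 37 degrees C), loaded 45-90 min at room temperature with Ca8 no-wash calcium dye plus quencher. FDSS fluorescence: 10 s baseline, compound pin-transfer, 110 s agonist read, then EC80 54-4 (4uM final) and 110 s antagonist read.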
Six1-Eya2 inh: qHTS Assay for Inhibitors of the Six1/Eya2 Interaction. activity change, % (no concentration beside the values). AlphaScreen GST-Six1/His-Eya2 binding, biochemical; active compounds read low; control for the full effect not named in the record. Homeobox protein SIX1 (Homo sapiens) + Protein phosphatase EYA2 (Homo sapiens), …. 360,000 tested, 0.56% active; in the data active = activity change below about -65%; inconclusive = about -30% to -65%; inactive = above about -30%; note: % is set by controls: 0 for no effect and ±100 for the full control effect
Target sequence (O00167 whole entry, looked up): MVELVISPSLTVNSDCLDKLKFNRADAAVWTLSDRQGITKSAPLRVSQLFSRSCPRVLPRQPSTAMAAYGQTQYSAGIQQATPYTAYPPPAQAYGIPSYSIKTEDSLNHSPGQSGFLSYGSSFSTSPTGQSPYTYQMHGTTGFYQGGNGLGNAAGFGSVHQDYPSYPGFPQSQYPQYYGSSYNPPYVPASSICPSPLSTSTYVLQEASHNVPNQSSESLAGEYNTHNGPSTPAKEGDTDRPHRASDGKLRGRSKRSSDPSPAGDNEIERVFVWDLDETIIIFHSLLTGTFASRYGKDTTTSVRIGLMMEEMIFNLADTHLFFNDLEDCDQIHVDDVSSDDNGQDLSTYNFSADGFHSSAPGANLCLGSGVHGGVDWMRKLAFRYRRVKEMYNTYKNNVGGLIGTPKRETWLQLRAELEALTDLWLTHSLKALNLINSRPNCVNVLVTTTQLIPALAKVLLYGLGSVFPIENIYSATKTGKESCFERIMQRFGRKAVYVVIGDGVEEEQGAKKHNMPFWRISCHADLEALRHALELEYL
Target sequence (Q15475 whole entry, looked up): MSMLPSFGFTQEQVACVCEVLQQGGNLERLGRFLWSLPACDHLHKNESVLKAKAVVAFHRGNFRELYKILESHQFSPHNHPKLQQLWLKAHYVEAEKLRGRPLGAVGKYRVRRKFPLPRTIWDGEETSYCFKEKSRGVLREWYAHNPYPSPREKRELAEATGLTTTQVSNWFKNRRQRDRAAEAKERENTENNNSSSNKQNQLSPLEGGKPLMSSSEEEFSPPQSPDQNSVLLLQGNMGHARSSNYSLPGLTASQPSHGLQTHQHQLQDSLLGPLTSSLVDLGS
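AlphaScreen with GST-Six1 and His-Eya2 (5X mix: 250 nM and 500 nM), glutathione donor and nickel acceptor beads; buffer 50 mM Tris pH 8.0, 300 mM NaCl, 1 mM TCEP; 1 h at 37 C in the dark.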
PINK1 expr mod: A Quantitative High throughput Screen to Identify Chemical Modulators of PINK1 Expression; PINK1 immunofluorescence, high-content cytometry, 24 h; Potency, µM (highest dose often 76.6 µM), for inactives: top-dose activation (PINK1 increase), hits mostly activators; 410,000 tested, 0.2% active; AID 624263, 2012; active = well fitted activation curve with a large enough effect; inconclusive = small, poorly fitted or top-dose-only effect; inactive = flat fitted curve, though single readings scatter; cell line not stated here;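 note: potency is the fitted concentration of half-maximal effect; % of control where 0% means no effect; nearly all actives have a fitted effect of over 65% in size; a mitochondrial uncoupler was the plate control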
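Fluorescence from anti-PINK1 antibody, together with nuclear and cell stains, was scanned on a laser-scanning cytometer. Before staining, stable-line cells were incubated 24 hours with compounds at 5 concentrations; primary antibody 12 h at 10 degrees C.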
D2 PAM: Beta-Arrestin HTS for Positive Allosteric Modulators of the Human D2 Dopamine Receptor: Potentiators. 360,000 tested, 0.23% active. DiscoveRx D2 beta-arrestin cells, luminescence, 90 min; 100% = 57 uM dopamine signal. potentiation, % (test concentration not listed). D(2) dopamine receptor (Homo sapiens), P14416; active = potentiation of 50% or more; inconclusive = 30% to 50%; inactive = 30% or less;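 note: compound concentration not given in the record; tested on top of an EC20 dose of dopamine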
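PathHunter D2 cells, attached overnight at 37 deg C, received compound in DMSO plus dopamine at EC20 (50 nM final) for 90 min at 37 deg C. Beta-arrestin recruitment was read as luminescence after 1 h with detection reagent at ambient temperature.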
An asterisk follows results filed as active; ? = inconclusive; · = no result given; [ ] = dose if it differs, or a comment. No enrichment for hits; about 1.3% have a hit in one of these screens.

Below each SMILES – D2 ag | CtBP-E1A inh | PINK1 expr mod | Six1-Eya2 inh | D2 PAM | TRPML1 agonist
1: O=C(Nc1ccccc1O)c1ccc(NC(=O)C2CC2)cc1
  -0.5 | -10 | 2.6% | -4 | 10 | -0.5
2: O=[N+]([O-])c1ccc(OC(F)F)c(/C=N/n2cnnc2)c1
  0.2 | 6 | 6.3% | 4 | 3 | 0.6
3: CSCC[C@H](NC(=O)COc1ccc(Cl)cc1Cl)c1nc2ccccc2[nH]1
  0.7 | 0 | 17% | -12 | -31 | 3.0
4: O=C(CSc1nc2ccccc2c(=O)n1-c1ccccc1)N1CCCC1
  -1.3 | -5 | 0.3% | 1 | 3 | 1.6
5: Cc1cccc(C)c1OCC(=O)NNC(=S)NC(=O)C1CC1
  -5.9 | -5 | 1.8% | -9 | -5 | 1.2
6: OCCCNc1ncnc2c1ncn2[C@H]1CN(Cc2ccc3c(c2)OCO3)C[C@@H](CO)O1
  -4.2 | 2 | 0.8% | 6 | -9 | -0.2
7: Cc1ccc(NC(=O)COc2ccc(C(=O)NCCc3ccccc3)cc2)cc1
  -2.3 | -11 | 4.5%[38.3 µM] | -1 | 0 | -0.2
8: CC(=O)c1c(C)oc2c1C(=O)c1ccccc1C2=O
  1.9 | 0 | 0.8% | 8 | 13 | 0.0
9: C=C(C)c1cccc(C(C)(C)NC(=O)Nc2ccc(OC)nc2)c1
  -3.9 | -11 | 0.9% | -7 | -7 | 3.6
10: C=CCN1C(=O)C(CC(=O)O)SC1=Nc1ccc(N=Nc2ccccc2)cc1 (stereo unspecified)
  -3.3 | -10 | -0.5% | -13 | -12 | 0.8
11: CCOc1ccc(NS(=O)(=O)c2ccc3[nH]c(=O)cc(C(=O)O)c3c2)cc1
  -4.0 | 2 | 17% | -6 | -7 | -0.1
12: CCCCn1c(N)c(N(CC(C)C)C(=O)C2CC(=O)N(Cc3ccccc3)C2)c(=O)[nH]c1=O (stereo unspecified)
  -1.7 | 1 | -0.5% | 0 | -2 | 1.0
13: Cc1cc(=O)[nH]c(SCC(=O)Nc2cccc3ccccc23)c1C#N
  1.2 | 2 | -5.5%[38.3 µM] | -11 | -6 | 0.1
14: CCOC(=O)C(=Cc1ccc(N(C)C)cc1)C(=O)c1ccccc1
  -2.6 | 8 | 2.6% | 4 | 9 | 3.7
15: Cc1nonc1NC(=O)CSc1nc2ccccc2cc1C#N
  3.3 | 1 | ? | -16 | 23 | 1.7
16: COc1ccc(C=O)cc1OC(=O)C1(C)Cc2ccccc2C(=O)O1 (stereo unspecified)
  -1.2 | 9 | 3.4% | 0 | -6 | -0.3
17: COC(=O)C(C)n1cnc2c(nnn2Cc2ccc(Cl)cc2)c1=O (stereo unspecified)
  -3.4 | 9 | 0.4% | 4 | 9 | 0.0
18: O=C(CSc1nnc2n1CCCN2)c1ccc([N+](=O)[O-])cc1
  -2.0 | -2 | -1.0% | 7 | 4 | -1.1
19: Cc1ccc(S(=O)(=O)Nc2c(C(=O)O)[nH]c3ccccc23)c(C)c1
  3.1 | 0 | 1.0% | -3 | -6 | 0.3
20: Cn1cc(Cl)c(-c2n[nH]c(=S)n2-c2ccc(F)cc2)n1
  -0.3 | 6 | 0.1% | 5 | -8 | -0.8
21: CC(Oc1ccccc1)C(=O)Nc1nc(-c2ccccn2)cs1 (stereo unspecified)
  0.4 | -87* | 4.4% | -68* | 7 | -0.1
22: CCOC(=O)NC(=O)/C(C#N)=N/Nc1c(F)cccc1F
  -1.4 | -2 | -2.2% | 7 | -17 | -0.1
23: Cc1ccc(S(=O)(=O)N2[C@@H](c3ccc(C(C)(C)C)cc3)C(C(=O)O)=CC[C@H]2c2ccc(Cl)cc2)cc1
  0.5 | 2 | 0.4% | -6 | · | 1.1
24: O=C(NC1CCN(Cc2ccc3ccccc3c2)CC1)c1ccccc1
  -2.8 | 12 | 0.0% | 4 | -34 | -0.7
25: OCCN1CCN(c2cc(C(F)(F)F)nc3c(F)cccc23)CC1
  1.1 | 3 | 9.9% | 5 | -5 | 1.8
26: COCC(C)n1c(SCC(=O)NC(=O)Nc2ccc3c(c2)OCCO3)nc2ccccc2c1=O (stereo unspecified)
  0.5 | 8 | 0.0%[38.3 µM] | -8 | -7 | 1.3
27: COc1ccc(CCNC(=O)c2cc(-c3cc(C)cc(C)c3O)n[nH]2)cc1OC
  2.4 | -15 | -1.3% | -7 | -8 | 2.3
28: CN(C)c1ccc(C(=O)NNC(=O)c2ccc(Cl)cc2)cc1
  -5.5 | 1 | -0.6% | 2 | -3 | -0.4
29: Cc1cc(C(=O)Cn2nnc3ccccc3c2=O)c(C)n1Cc1cccs1
  4.0 | -24 | 0.3% | -16 | 6 | 4.1
30: Fc1cccc(Cl)c1Cn1nnc2c(NCc3ccncc3)ncnc21
  -2.0 | 3 | 3.1% | 0 | -1 | -0.2

One compound at a time, from the list above:
Cc1cc(C(=O)Cn2nnc3ccccc3c2=O)c(C)n1Cc1cccs1 as listed: D2 ag: 4.0; CtBP-E1A inh: -24; PINK1 expr mod: 0.3%; Six1-Eya2 inh: -16; D2 PAM: 6; TRPML1 agonist: 4.1
O=C(NC1CCN(Cc2ccc3ccccc3c2)CC1)c1ccccc1 as listed: D2 ag: -2.8; CtBP-E1A inh: 12; PINK1 expr mod: 0.0%; Six1-Eya2 inh: 4; D2 PAM: -34; TRPML1 agonist: -0.7

Other entries
Below each SMILES – D2 ag | CtBP-E1A inh | PINK1 expr mod | Six1-Eya2 inh | D2 PAM | TRPML1 agonist
31: O=C(CSc1nc2ccc([N+](=O)[O-])cc2s1)NC1CCS(=O)(=O)C1 (stereo unspecified)
  0.6 | -3 | -0.8% | -1 | 0 | 2.1
32: CCNC(=O)COC(=O)/C=C/c1cccc(F)c1
  0.7 | 7 | 0.3% | -1 | -2 | -0.1
33: CC(C)c1nc(SCC(=O)Nc2ccc(C(=O)O)cc2)c2c3c(sc2n1)CCCC3
  -0.7 | -16 | -2.4% | -83* | -2 | 2.2
34: COc1cccc(NC(=O)Nc2ccc3nsnc3c2)c1
  0.1 | 4 | -0.7%[38.3 µM] | 0 | -6 | 1.0
35: O=C(COC(=O)CCC(=O)c1ccc(F)cc1)NCc1ccco1
  -4.6 | 16 | -0.2% | 0 | -3 | 0.7
36: COc1ccc(CCNCc2c(OC)ccc3ccccc23)cc1OC
  -8.5 | -6 | -0.9% | -3 | -9 | 3.0
37: Cc1occc1C(=O)NCc1ccc(C(=O)O)o1
  -2.4 | -2 | 7.3%[38.3 µM] | -1 | -10 | -0.1
38: COc1cc(Cl)ccc1NC(=O)COc1ccccc1C(=O)N1CCN(c2ccc(O)cc2)CC1
  8.2 | -1 | 1.3% | -9 | ? | -0.1
39: CCc1nc2sc3c(c2c(=S)[nH]1)CC(C)(C)OC3
  3.9 | -2 | 2.6% | 5 | 0 | 1.7
40: Cc1cc2cc(OCc3ccccc3)ccc2n1C
  -1.3 | · | 3.2% | -29 | -3 | -0.5
41: O=c1oc2cc(OCc3ccc(C(F)(F)F)cc3)ccc2cc1-c1ccccn1
  -1.6 | 6 | -0.6% | 4 | -14 | 7.2
42: COc1ccc2cc(CCNS(=O)(=O)c3c(C)cc(C)cc3C)c(=O)[nH]c2c1
  -1.4 | -1 | -0.9% | -3 | -2 | 0.8
43: CCOC(=O)c1sc(=S)n(-c2ccccc2)c1N(C(C)=O)C(C)=O
  -1.8 | -1 | 4.5% | -11 | 1 | -0.7
44: O=[N+]([O-])c1cc(/C=N\O)ccc1Oc1ccc(F)cc1
  -2.7 | 1 | -1.0% | 2 | -1 | 3.3
45: O=S(=O)(NC1=NCCC1)c1cccc(NC(=S)Nc2ccc(OC(F)F)cc2)c1
  -1.4 | 2 | 0.0% | -3 | 5 | -0.5
46: COCCn1c(SCC(=O)NC2CCCC2)nc2cccnc21
  0.0 | 8 | -0.1% | 0 | -4 | 2.2
47: CC1Sc2ccc(S(=O)(=O)N3CCN(c4ccccc4)CC3)cc2NC1=O (stereo unspecified)
  1.9 | · | 0.5% | -10 | -1 | 1.5
48: O=C(C1CCN(S(=O)(=O)c2cnc[nH]2)CC1)N1CCN(c2ccc([N+](=O)[O-])cc2)CC1
  0.2 | 2 | -0.3% | -4 | 0 | -0.4
49: CC1=C(C(=O)N2CCCCCC2)CC(CC(=O)NCCN2CCOCC2)C(=O)N1Cc1ccc(F)cc1 (stereo unspecified)
  · | 2 | 1.0% | 4 | · | -0.1
50: Oc1ccc(CCC2CCCCN2Cc2nc(C3CC3)no2)cc1 (stereo unspecified)
  -2.6 | 0 | 3.8% | 2 | -4 | -0.4
51: COc1ccc(Cc2nnn(CC(=O)O)n2)cc1
  1.0 | 8 | 0.3% | 4 | -3 | 3.2
52: O=C(CN1CCN(C2CCCCC2)CC1)NCCC1=CCCCC1
  -1.2 | 5 | · | 2 | -23 | 0.0
53: Cc1ccc(CN(C)C[C@@H]2OCc3cnnn3CCCC(=O)N([C@H](C)CO)C[C@H]2C)cc1
  -5.6 | -20 | -0.4% | 1 | -2 | -0.1
54: C[C@@H](NC(=O)[C@@H]1CCCN1C(=O)[C@@H]1CCCN1C(=O)c1cccs1)c1ccccc1
  · | 7 | 0.8% | 16 | · | -0.9
55: CC1=NN(C(=O)c2ccc(Cn3cc([N+](=O)[O-])cn3)cc2)C(O)(C(F)(F)F)C1 (stereo unspecified)
  -6.5 | 1 | 0.5% | 9 | -2 | 5.7
56: O=[N+]([O-])c1ccccc1SNc1ccccn1
  2.1 | -7 | -1.1% | -5 | -2 | 0.1
57: CCOC(=O)c1[nH]c2ccccc2c1NC(=O)c1ccco1
  -3.5 | 0 | -0.6% | -5 | -19 | -0.9
58: CCCC(=O)Nc1nc(-c2ccc(OC)cc2)cs1
  1.3 | 3 | -0.3% | 6 | -22 | 0.5
59: O=C(NCCc1ccccc1)/C(=C\c1ccccc1)NC(=O)c1ccco1
  -3.5 | -4 | 2.7% | 2 | -7 | 0.0
60: O=C(/C=C/c1ccco1)N1CCN(S(=O)(=O)c2ccccc2)CC1
  -0.5 | 0 | -0.1% | -11 | -2 | -0.9

Random excerpt: three entries already listed.
Below each SMILES – D2 ag | CtBP-E1A inh | PINK1 expr mod | Six1-Eya2 inh | D2 PAM | TRPML1 agonist
52: O=C(CN1CCN(C2CCCCC2)CC1)NCCC1=CCCCC1
  -1.2 | 5 | · | 2 | -23 | 0.0
51: COc1ccc(Cc2nnn(CC(=O)O)n2)cc1
  1.0 | 8 | 0.3% | 4 | -3 | 3.2
53: Cc1ccc(CN(C)C[C@@H]2OCc3cnnn3CCCC(=O)N([C@H](C)CO)C[C@H]2C)cc1
  -5.6 | -20 | -0.4% | 1 | -2 | -0.1

Source: PubChem BioAssay (National Center for Advancing Translational Sciences (NCATS))
